Screens: PubChem BioAssay, ICCB-Longwood Screening Facility, Harvard Medical School
Ba CapD inh = blocks the Bacillus anthracis CapD enzyme. z-score (concentration not given with the values). actives 0.23% (n = 140,000). purified CapD enzyme, fluorescence intensity read-out; hits give low values; some hits fall short of the stated cut;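 active means z-score under -4 in either of two replicates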;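 further: stock transfer was 100 nL into about 40 µL; score is relative to mean and spread of the plate; one replicate is shown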
AID504770 = growth inhibitors of E. coli YBA685 in a screen for V. cholerae RctB (chromosome II replication) inhibitors. E. coli YBA685 rctB-dependent plasmid, OD600 growth, 3 h; hits give low values. z-score (no concentration beside the values). actives 0.27% (n = 130,000). AID 504770;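 active means z-score under -2 on both plates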;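 further: wells of about 30 µL received 100 nL stock; score is relative to mean and SD of the test wells; the first replicate is given; strong numbers were not always called active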
* hit, by the source's call; nt = no result given; & = joins results of further samples.

SMILES | Ba CapD inh | AID504770
COc1cc(NC(=O)c2sc3ncn(CC(=O)N4CC(C)CC(C)C4)c(=O)c3c2C)cc(OC)c1OC (centres undefined) | 0.24 | nt
CCOc1ccccc1NC(=O)COC(=O)CCN1C(=O)C2CC=CCC2C1=O (centres undefined) | nt | 0
COC(=O)c1ccc(Oc2cc(C)nc(NCc3ccccc3)n2)cc1 | -0.035 | nt
CN1C(=O)/C(=C(/C#N)C(=O)NCc2ccc(Cl)cc2)c2ccccc21 | -0.02 | 0.95
CS/C(=N\S(=O)(=O)c1cccs1)Nc1ccc(F)cc1 | nt | 1.2
S=C1NC(c2ccc(OCc3ccccc3)cc2)=CC(c2ccccc2Cl)N1 (centres undefined) | -0.24 | nt
O=C(Cc1ccc(Cl)cc1)Nc1cccc2nsnc12 | -0.34 | -1
O=C(Nc1cc(C(F)(F)F)ccc1Br)c1ccccc1F | -0.74 | -0.8
Cc1c(SC(F)F)cc(SC(F)F)cc1SC(F)F | nt | 0.1
COc1ccc(S(=O)(=O)NC(N)=NCCc2ccc(Cl)cc2)cc1OC | nt | 0.25
CCOC(=O)C1=C(c2ccccc2)S/C(=C2/C(=S)C(C)(C)N(C(=O)C(F)(F)F)c3ccc(OCC)cc32)S1 | -0.555 | nt
Cc1ccc(S(=O)(=O)C(C)N2C(=O)N(C)C(C)C2c2ccccc2)cc1 (centres undefined) | 0.24 | nt
C=CCn1c(SCC(=O)Nc2ccc3c(c2)OCO3)nc2sc(C)c(C)c2c1=O | 0.15 | nt
COc1ccc(C2CC(=O)C3=C(C2)Nc2ccccc2NC3c2cc(Br)ccc2F)cc1OC (centres undefined) | 0.045 | nt
Cc1noc(C)c1COc1cccc(C(=O)N[C@@H](Cc2ccccc2)c2nc3ccccc3[nH]2)c1 | nt | 0.55
O=C(OCc1ccccc1)c1cc2ccccc2[nH]1 | nt | 0.55
CCOC(=O)N1CCC(NC(=O)c2ccccc2C(=O)O)CC1 | -0.12 | -0.85
CCc1ccc(NC(=O)N(C(C)C)C2CCN(C(C)=O)CC2)cc1 | 0.945 | -0.3
COc1cc(OC)cc(C(=O)N2c3ccccc3N3C(c4c(C)c(C)cc(C)c4C)=NON23)c1 | -0.645 | nt
CCc1cc(S(N)(=O)=O)cc(CC)c1NC(C)=O | 1 | -0.4
CCOc1ccc2oc(=O)cc(CN3CCN(C(=O)c4ccc5c(c4)OCO5)CC3)c2c1 | 4.06 | 0.65
COc1cccc(C(=O)N/N=C/c2sc3ccccc3c2C)c1 | 0.555 | nt
COc1ccc(O)c(C=Nc2cc(C)ccn2)c1 | 0.14 | -0.7
CCOc1ccccc1C1C(C#N)=C(SCC(=O)N2CCCC2)NC2=C1C(=O)CCC2 (centres undefined) | nt | 0.8
Cc1nc2oc3ccc(Cl)cc3c(=O)c2cc1C(=O)NCc1ccncc1 | 2.35 | nt
Brc1ccc(CNc2ccc3c(c2)ncn3-c2ccccc2)cc1 | -0.95 | 1.8
CC(NC(=O)C1CCCN(S(=O)(=O)c2cccc3nonc23)C1)c1ccccc1 (centres undefined) | 0.355 | -0.2
COc1ccc(Nc2nc3nonc3nc2Nc2ccc(OC)cc2OC)c(OC)c1 | -0.105 | nt
CCOCCOC(=O)C1=C(C)NC2=C(C(=O)CC(c3ccccc3)C2)C1c1ccc(OC)cc1OC (centres undefined) | 1.84 | nt
CCn1cc(CCCC(=O)NC(C)C)c2ccccc21 | 0.195 | -0.4
CC(C)(C)c1ccc(CN2C3=NC(=O)CN3c3ccccc32)cc1 | 0.415 | 0.25
COc1ccc(C2CC(=O)c3c(SCc4ccccc4)sc(C#N)c3C2)cc1 (centres undefined) | -0.345 | nt
Cc1ccccc1-c1nc2sc(C)c(C)c2c(=O)o1 | -0.215 | 1.3
O=C(N=S1CCN(C(=O)c2ccc(Cl)cc2)CC1)c1ccc(Cl)cc1 | -0.27 | -0.7
CCn1c(SCC(=O)Nc2ccc(S(=O)(=O)N3CCCC3)cc2)nnc1-c1ccccc1 | nt | 1.65
CCN1CCN(c2ccc(NC(=O)Cc3ccsc3)cc2)CC1 | nt | -0.65
CN(Cc1ccccc1)C(=O)CNc1cccc(C#N)c1 | 22.9 | 0.75
O=C(O)c1ccccc1SC1CC(=O)N(c2ccccc2)C1=O (centres undefined) | 0.65 | -0.25
CC(NC(=O)c1ccco1)C(=O)NCc1ccccc1CN(C)C (centres undefined) | nt | -1.3
CCOc1ccc(C(=O)C(C)Sc2nnnn2-c2ccc(OC)cc2)cc1 (centres undefined) | nt | 0.05
O=C(CC(c1ccccc1)c1ccccc1)NCc1ccco1 | nt | 1.35
CCn1c(=N)n(CC(O)c2cccs2)c2ccccc21 (centres undefined) | 0.51 | 0.1
O=C(Nc1ccncc1)c1ccc(C(=O)c2ccccc2)cc1 | -0.165 | -1.6
Cc1cc(N2CCOCC2)nc(SCC(=O)N2CCCC2)n1 | 0.465 | 0.1
COc1ccc(CCN2C(=O)CN=C2Nc2ccc(F)cc2)cc1OC | nt | -0.25
C=CCN1C(=O)CC(C(=O)Nc2ccc(OC)cc2)SC1=Nc1ccc(C(=O)OCC)cc1 (centres undefined) | -0.265 | nt
CC(C(=O)NCc1ccc2c(c1)OCO2)n1ccc2cc(S(=O)(=O)N3CCCCCC3)ccc21 (centres undefined) | 0.705 | 0.65
O=C(Cc1c(F)cccc1Cl)OCC(=O)c1ccc2c(c1)OCO2 | nt | 0.9
COc1ccc(-c2cc(=O)c3c(O)cc(O)cc3o2)cc1 | -0.36&-0.33 | 2
CC12CCC(C(=O)N3CCc4ccccc43)(CC1=O)C2(C)C (centres undefined) | 0.055 | -0.95
Cc1ccc(C(=O)CN2CCCC(C)C2)cc1 (centres undefined) | nt | -1.2
Cc1cc(Cn2cnc3ccccc3c2=O)no1 | nt | -0.95
O=C(CSc1ccc(Cl)cc1)Nc1ccc(F)cc1 | -0.165 | nt
O=C(c1ccc(O)cc1)N1N=CCC1(O)C(F)(F)F (centres undefined) | nt | -0.2
COc1cc2ncnc(Sc3ccc(Cl)cc3)c2cc1OC | 0.805 | nt
C=CCC1(Nc2ccccc2)CCCCC1 | 0.315 | -0.95
CC(C)=CC(=O)Nc1nc2ccc(C)cc2s1 | 0.785 | 0.65
O=C(NCc1ccc2c(c1)OCO2)c1ccc2c(c1)OCO2 | 0.495 | 0.75
O=C(Cn1cnc2c(nnn2-c2cccc(Cl)c2)c1=O)NCC1CCCO1 (centres undefined) | 6.35 | 1.65
Clc1cccc(N=NN2CCOCC2)c1Cl | -1.6 | -0.6

Exported tab-delimited: entries from further up.
Molecule	Ba CapD inh	AID504770
Cc1cc(N2CCOCC2)nc(SCC(=O)N2CCCC2)n1	0.465	0.1
COc1ccc(CCN2C(=O)CN=C2Nc2ccc(F)cc2)cc1OC	nt	-0.25
C=CCN1C(=O)CC(C(=O)Nc2ccc(OC)cc2)SC1=Nc1ccc(C(=O)OCC)cc1 (centres undefined)	-0.265	nt
CC(C(=O)NCc1ccc2c(c1)OCO2)n1ccc2cc(S(=O)(=O)N3CCCCCC3)ccc21 (centres undefined)	0.705	0.65
O=C(Cc1c(F)cccc1Cl)OCC(=O)c1ccc2c(c1)OCO2	nt	0.9
COc1ccc(-c2cc(=O)c3c(O)cc(O)cc3o2)cc1	-0.36&-0.33	2
CC12CCC(C(=O)N3CCc4ccccc43)(CC1=O)C2(C)C (centres undefined)	0.055	-0.95
Cc1ccc(C(=O)CN2CCCC(C)C2)cc1 (centres undefined)	nt	-1.2
Cc1cc(Cn2cnc3ccccc3c2=O)no1	nt	-0.95
O=C(CSc1ccc(Cl)cc1)Nc1ccc(F)cc1	-0.165	nt
O=C(c1ccc(O)cc1)N1N=CCC1(O)C(F)(F)F (centres undefined)	nt	-0.2
COc1cc2ncnc(Sc3ccc(Cl)cc3)c2cc1OC	0.805	nt
C=CCC1(Nc2ccccc2)CCCCC1	0.315	-0.95
CC(C)=CC(=O)Nc1nc2ccc(C)cc2s1	0.785	0.65

Additional compounds
SMILES | Ba CapD inh | AID504770
O=C(NC1CCCC1)C1CCN(C(=O)c2sccc2-n2cccc2)CC1 | -0.165 | 0.45
CCOC(=O)c1ccc(NC(=O)CCN2N=C(c3ccccc3)CCC2=O)cc1 | 0.055 | 0
NC(=O)CC(NC(=O)CCC(=O)Nc1ccc(Br)cn1)C(=O)OCc1ccc([N+](=O)[O-])cc1 (centres undefined) | 0.485 | nt
O=C(O)CSCCc1ccccc1 | 0.515 | 0.4
CCOC(=O)CNC(=O)CC(CC(=O)C1CC1)c1ccc(Br)cc1 (centres undefined) | -1.35 | nt
CSc1s[nH]c(=O)c1C#N | 0.095 | -1
CCOc1ccc(-c2[nH]nc3c2C(c2ccc(OCC)c(OCC)c2)C(C#N)=C(N)O3)cc1OC (centres undefined) | -0.115 | nt
Cc1cc2cc(CNC(=O)CC(C)(C)C)ccc2[nH]1 | nt | -0.4
Cc1cc(-c2csc(N)n2)c(C)s1 | nt | -1
Cc1onc(-c2c(Cl)cccc2Cl)c1C(=O)NCc1csc2ccccc12 | 0.71 | nt
O=C(O)c1cccnc1Sc1ccccc1 | -0.345 | nt
O=C(CSc1ccc(Cl)cc1)N1CCCC1 | 0.45 | -0.6
COc1cccc(-c2n[nH]c3c2C(c2ccccc2)NC3=O)c1 (centres undefined) | -0.12 | -0.45
Cc1cc(C)c(NC(=O)CSc2nc3c(c(-c4ccco4)c2C#N)CCCC3)c(C)c1 | 0.395 | 0.1
COc1ccc(Cl)cc1S(=O)(=O)NC(c1ccccc1)c1ccccn1 (centres undefined) | 0.435 | nt
Cc1ccc(C(=O)Cn2cnc3c2c(=O)n(C)c(=O)n3C)cc1 | nt | 1.85
COc1ccc(CCn2c(C)cc(C(=O)COC(=O)c3cccc(-n4cnnn4)c3)c2C)cc1 | nt | -0.1
Cc1cc2c(=O)n(Cc3ccco3)c(SCC(=O)c3cccs3)nc2s1 | nt | 0.1
CC(C)N(C(=O)Cc1c(O)c2ccccc2[nH]c1=O)C(C)C | 0.42 | 0.15
COc1cccc(C2=N/C(=C\c3ccccc3OC)C(=O)N2c2cccc(Cl)c2C)c1 | -1.38 | nt
Cc1cnc(N(C(=O)c2c(-c3ccccc3)noc2C)C(=O)c2c(-c3ccccc3)noc2C)c(C)n1 | 63.6 | -0.9
COc1cc2c(cc1OC)/C(=C/N(C)C)C(=O)OC2 | 0.09 | nt
CCOc1ccccc1NC(=O)CSc1nc(O)cc(=O)n1C1CCCC1 | nt | 0.5
CCCCC12CN3CCN(CC(C3)C1=N/N=C1\C3CN4CCN(C3)CC1(CCCC)C4)C2 | 0.035 | -1
Cc1nn(-c2c(Cl)cc(C(F)(F)F)cc2Cl)c(=O)c2ccccc12 | -0.495 | nt
COc1cccc(-n2c(SC3CCOC3=O)nc3ccccc3c2=O)c1 (centres undefined) | nt | -0.25
Cc1cc(C(=O)NC2CCSc3ccccc32)no1 (centres undefined) | nt | 0.9
CC(=O)Oc1c(Br)c(=O)[nH]c2ccccc12 | nt | 0.6
O=C(O)C1C2C=CC(C2)C1C(=O)N1CCC(c2nnc(-c3ccccc3)o2)CC1 (centres undefined) | -0.455 | nt
CCC1CCCCN1C(=O)c1cc2cc(OC)ccc2oc1=O (centres undefined) | nt | 2.75
Nc1ccc(OCC(=O)N2CCOCC2)cc1 | 0.52 | -0.15
O=C(OCc1ccccc1)C1CCCN1S(=O)(=O)c1cccc2nonc12 (centres undefined) | 0.44 | nt
C=C=CSc1nnc(-c2nn(-c3ccc(Cl)cc3)ccc2=O)n1CC | -0.255 | nt
O=c1oc2ccc([N+](=O)[O-])cc2cc1-c1nc(-c2ccc(Cl)cc2)cs1 | -0.295 | nt
COC(=O)c1ccc(COC(=O)CCc2nc3ccccc3s2)o1 | nt | -0.1
CC(C)(C)c1ccc(NS(=O)(=O)c2cccc3nonc23)cc1 | -0.97 | nt
Cc1ccc(-c2nc(NC(=O)c3c(-c4ccccc4Cl)noc3C)sc2C)cc1 | 0.2 | nt
CCOC(=O)c1cc(OC(C)=O)c2ccc(OC)c(OC)c2c1 | 28.5 | 0.4
CCOc1cc(/C=C/C(=O)C2C(=O)C=C(C)OC2=O)ccc1OC (centres undefined) | nt | 0.6
CCCN1C(=O)c2cccc3c(S(=O)(=O)N(C)C)ccc1c23 | 4.46 | nt
O=C(c1ccco1)N(Cc1ccccc1O)c1ccc(Cl)cc1 | -0.375 | 2.05
O=C(NCCc1ccccc1)c1nn2c(c1Br)NC(c1cccs1)CC2C(F)(F)F (centres undefined) | -1.35 | nt
CCOC(=O)c1c(-c2ccc(Cl)cc2)nn2c1NCN(Cc1cccc(OC)c1)C2 | 0.435 | 1.35
Cc1ccc(S(=O)(=O)N2CCCCC2)cc1 | 0.195 | nt
O=C(O)CCNS(=O)(=O)c1ccc2ccccc2c1 | 0.635 | -0.6
O=C(NCCC1=CCCCC1)C1CC(O)CN1C(=O)Nc1ccccc1 (centres undefined) | nt | -0.9
OC(c1ccccc1)c1nc2ccccc2s1 (centres undefined) | 0.03 | 0.35
COc1ccc(/C=C2/C(=O)c3ccc(C(=O)O)cc3C2=O)cc1OC | 0.015 | -0.45
O=C(CSc1nncs1)NC1CCCc2ccccc21 (centres undefined) | nt | 1.45
CCOc1ccc(NC(=O)COC(=O)CCC2CCCCC2)cc1 | 0.26 | 0.1
CC(C)C(CC(=O)O)N1Cc2ccccc2C1=O (centres undefined) | 0.35 | 0.5
CC1CCCCC1NC(=O)C1CCN(C(=O)c2cc3sccc3n2Cc2ccc(F)cc2)CC1 (centres undefined) | 0.465 | -0.65
COc1cc(Cl)c(COC(=O)N2CCN(C(=O)c3ccc(C)cc3)CC2)cc1OC | -0.67 | nt
COc1ccc(-n2c(=S)[nH]c3cc(C(=O)Nc4cc(OC)c(OC)c(OC)c4)ccc3c2=O)c(OC)c1 | -1.43 | nt
CCC1(C)CC(=O)N(c2ccc(C(=O)O)c(O)c2)C1=O (centres undefined) | nt | 2.25
